# EPAC1 agonist – Validation qHTS for agonist of cAMP-regulated guanine nucleotide exchange factor 3 (EPAC1) | EPAC1 Rap1b BODIPY-GDP exchange, fluorescence | Rap guanine nucleotide exchange factor 3 (Homo sapiens), O95398 | Potency, µM, without a hit: max response, positive = active, most hits filed as activators | 16,000 tested, 1% active; active means well fitted activation curve with a large enough effect; inconclusive means small, poorly fitted or top-dose-only effect; inactive means no such curve, though single readings can be large or run the other way;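 further: nearly all actives have a fitted effect of over 70% in size; series mostly up to about 76 or 150 µM; scaled to a cAMP control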
# Target sequence (O95398 whole entry, looked up): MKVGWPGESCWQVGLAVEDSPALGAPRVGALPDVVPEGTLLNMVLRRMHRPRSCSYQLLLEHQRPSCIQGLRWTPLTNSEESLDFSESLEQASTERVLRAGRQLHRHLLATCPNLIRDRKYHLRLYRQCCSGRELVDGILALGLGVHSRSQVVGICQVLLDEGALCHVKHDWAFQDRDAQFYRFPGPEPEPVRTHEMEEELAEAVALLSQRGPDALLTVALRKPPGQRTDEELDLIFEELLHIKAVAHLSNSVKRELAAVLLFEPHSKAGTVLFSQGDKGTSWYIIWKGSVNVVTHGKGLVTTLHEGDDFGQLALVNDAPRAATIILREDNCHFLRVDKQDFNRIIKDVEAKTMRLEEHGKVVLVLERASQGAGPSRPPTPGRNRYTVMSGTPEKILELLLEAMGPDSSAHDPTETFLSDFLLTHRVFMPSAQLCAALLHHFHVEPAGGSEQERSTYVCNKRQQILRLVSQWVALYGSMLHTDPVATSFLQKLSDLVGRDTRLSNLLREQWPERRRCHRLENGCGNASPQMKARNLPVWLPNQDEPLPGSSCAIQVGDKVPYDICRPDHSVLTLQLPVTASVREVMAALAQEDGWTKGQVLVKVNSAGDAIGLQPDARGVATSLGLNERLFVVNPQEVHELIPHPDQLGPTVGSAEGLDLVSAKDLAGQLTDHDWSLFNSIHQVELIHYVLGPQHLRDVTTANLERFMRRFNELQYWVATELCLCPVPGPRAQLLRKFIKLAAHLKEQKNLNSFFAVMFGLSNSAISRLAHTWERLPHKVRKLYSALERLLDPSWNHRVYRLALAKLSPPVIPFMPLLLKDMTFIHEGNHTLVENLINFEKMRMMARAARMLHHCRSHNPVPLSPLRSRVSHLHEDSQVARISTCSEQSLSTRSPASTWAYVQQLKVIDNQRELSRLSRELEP
# * = called active by the depositor; ? = inconclusive; & = joins results of further samples; [ ] = dose if it differs, or a comment. On the % scale 0 is the no-effect control and ±100 the full control effect; potency means the concentration at half of the fitted maximal effect. An excerpt, so the mix of outcomes need not match the whole.
EPAC1 agonist	canonical_smiles
1%	COCC(=O)Nc1cc(C(=O)N2CC3CC4CC(C3)CC2C4)c2c(c1)nc(-c1ccncc1)n2C
-45%[inhibitor]	O=S1(=O)CCOCCCN1Cc1ccccc1Br
-5%	CCNc1ncc2nc(-c3ccc(F)cc3)c(=O)n(Cc3ccc(F)cc3)c2n1
?	CN1CCC(N(Cc2cccs2)c2ccccc2)CC1
-17%	CN(C)c1c(Cl)cc(/C=C/c2ccnc3ccccc23)cc1Br
-12%	CCC(=O)c1ccc(O)cc1
24%	O=c1[nH]cnc2[nH]cc(CN3CCCCC3)c12
-65%[inhibitor]	COc1ccc(-c2noc(CC(=O)O)c2-c2ccc(OC)cc2)cc1
3%&-4%&14%	Cc1ccccc1C(OCCN(C)C)c1ccccc1 (stereo not drawn)
?	Nc1nc(N)c(N)c(=O)[nH]1
-18%	Cc1nc2cnc(N3CCOCC3)nc2n(CCc2ccccc2)c1=O
3%	Cc1ccnc2c(Cl)cccc12
-42%[inhibitor]	CC1=CC(=O)C2C(C)(C)CCC[C@@]2(C)[C@@]1(O)CCc1ccoc1 (stereo partly drawn)
-15%&2%	CC(C)(C)c1cc(O)c(C(C)(C)C)cc1O
?	COc1ccc(-c2nc3cnc(Oc4ccccc4)nc3n(CCC#N)c2=O)cc1
27%	C[C@@H]1[C@H](c2ccccc2)OCCS(=O)(=O)N1Cc1ccccc1
0%	O=C(CSc1ncccn1)NCC1Cc2cccc(-c3ncccn3)c2O1 (stereo not drawn)
-21%	C[N+]1(CC(=O)c2ccc(I)cc2)CCOCC1
1%	C[Si](C)(C)O[Si](C)(C)C
-23%	COc1cc(O)c(C(=O)c2ccccc2)cc1S(=O)(=O)O
-19%	N[C@H](C(=O)O)c1ccc(O)cc1
-7%	C=C[C@@]1(C)CC(=O)[C@]2(O)[C@@]3(C)[C@@H](O)CCC(C)(C)[C@@H]3[C@H](O)[C@H](OC(C)=O)[C@@]2(C)O1
?	CC1(C)S[C@@H]2[C@H](NC(=O)[C@H](N)c3ccc(O)cc3)C(=O)N2[C@H]1C(=O)O
-20%&10%	COc1cc2ccc(=O)oc2c(O)c1O
-2%	COc1[nH]c2ccc(F)cc2c1C(=O)OCC1CCN(CCNS(C)(=O)=O)CC1
112µM*	COCCn1c(=O)c(-c2cccc(C#N)c2)nc2cnc(Nc3ccccc3)nc21
-84%[inhibitor]	O=C(O)c1cc(O)c2c(c1)C(=O)c1cc(O)cc(O)c1C2=O
112µM*	CN(C)c1ncc2nc(CCc3ccccc3)c(=O)n(Cc3cccs3)c2n1
-12%	CCC(=O)O[C@H](CC(=O)O)C[N+](C)(C)C
-65%[inhibitor]	CC(=O)N1CCC2(CC1)CCN(C(=O)Nc1cccc(C#N)c1)CC2
26%	O=C(Nc1ccccc1)N1CC[C@@]2(CCCN(C(=O)c3ccco3)C2)C1
4%	COC(=O)C1CCN(Cc2ccc3c(c2)CN(C(=O)c2cc4ccccc4n2C)CCO3)CC1
?	CC(=O)[C@@]1(O)CC[C@H]2[C@@H]3C=C(Cl)C4=CC(=O)[C@@H]5C[C@@H]5[C@]4(C)[C@H]3CC[C@@]21C
-6%	C=C1c2c(Cl)ccc(O)c2C(O)=C2C(=O)[C@]3(O)C(O)=C(C(N)=O)C(=O)[C@@H](N(C)C)[C@@H]3[C@@H](O)C12 (stereo partly drawn)
12%	CCNc1ncc2nc(-c3ccc(OC)cc3)c(=O)n(C[C@H]3CCCO3)c2n1
-24%	COc1cccc(-n2c(SC)nnc2C2CCN(CCC(C)c3ccc(C)o3)CC2)c1 (stereo not drawn)
112µM*	N[C@H](C(=O)O)C(O)C(O)C(O)CO (stereo partly drawn)
-12%	COc1cccc(-c2cc(NCc3cccnc3)ncn2)c1
9%&2%	CCCCCCc1c(C[C@H](N)C(=O)O)o[nH]c1=O
13%	Cc1cnc(CNc2ncncc2-c2ccccc2Cl)cn1

# Five compounds from above, sorted by the value under EPAC1 agonist, smallest number first.
EPAC1 agonist	canonical_smiles
-24%	COc1cccc(-n2c(SC)nnc2C2CCN(CCC(C)c3ccc(C)o3)CC2)c1 (stereo not drawn)
-12%	COc1cccc(-c2cc(NCc3cccnc3)ncn2)c1
-7%	C=C[C@@]1(C)CC(=O)[C@]2(O)[C@@]3(C)[C@@H](O)CCC(C)(C)[C@@H]3[C@H](O)[C@H](OC(C)=O)[C@@]2(C)O1
-6%	C=C1c2c(Cl)ccc(O)c2C(O)=C2C(=O)[C@]3(O)C(O)=C(C(N)=O)C(=O)[C@@H](N(C)C)[C@@H]3[C@@H](O)C12 (stereo partly drawn)
12%	CCNc1ncc2nc(-c3ccc(OC)cc3)c(=O)n(C[C@H]3CCCO3)c2n1

# Returning to the listing; the six compounds before the break are reprinted first.
EPAC1 agonist	canonical_smiles
12%	CCNc1ncc2nc(-c3ccc(OC)cc3)c(=O)n(C[C@H]3CCCO3)c2n1
-24%	COc1cccc(-n2c(SC)nnc2C2CCN(CCC(C)c3ccc(C)o3)CC2)c1 (stereo not drawn)
112µM*	N[C@H](C(=O)O)C(O)C(O)C(O)CO (stereo partly drawn)
-12%	COc1cccc(-c2cc(NCc3cccnc3)ncn2)c1
9%&2%	CCCCCCc1c(C[C@H](N)C(=O)O)o[nH]c1=O
13%	Cc1cnc(CNc2ncncc2-c2ccccc2Cl)cn1
0%	CCN1C(=O)C=CC1=O
23%	O=C(O)C[C@H]1c2ccccc2S(=O)(=O)N1C1CCCC1
?	CN(C)C(=O)c1ccc(-c2nccc(NCc3cccnc3)n2)cc1
2%&18%	CCCN(CC1CC1)c1nc(C)nc(Nc2c(Cl)cc(Cl)cc2Cl)c1Cl
-99%[inhibitor]	COCCn1c(=O)c(-c2ccc(OC)cc2)nc2cnc(Oc3ccccc3)nc21
-23%	O=c1c(CCc2ccccc2)nc2cnc(Nc3ccccc3)nc2n1C[C@H]1CCCO1
-80%[inhibitor]	COc1ccc(C(=O)N2CCC3(CCN(Cc4cc(C(F)(F)F)cc(C(F)(F)F)c4)CC3)CC2)cc1
1%	O=c1cc(-c2ccccc2)oc2c1ccc1ccccc12
7%	C=CCN1CCc2cc(O)c(O)cc2[C@H](c2ccccc2)C1
-23%	COc1ccc(Oc2ncc3nc(-c4cccc(C#N)c4)c(=O)n(Cc4cccc(OC)c4)c3n2)cc1
-2%	C/C=C(\C)C(=O)OC1c2c(ccc3ccc(=O)oc23)OC(C)(C)C1OC(C)=O (stereo not drawn)
-17%	CC1=C2C(=COC(C)C2C)C(=O)C(C(=O)O)=C1O (stereo not drawn)
-23%	C=C1CCC(=O)C(C)CCC2C1CC2(C)C (stereo not drawn)
1%	C=C1C2CC[C@@]3(C)C(c4ccoc4)OC(=O)C[C@@]13OC1CC(=O)C(C)(C)C(CC(=O)OC)[C@]12C (stereo partly drawn)
-10%	Nc1ccn([C@H]2CS[C@@H](CO)O2)c(=O)n1
0%	CNc1ncnc2ccc(-c3ccccc3C#N)cc12
-11%	CCCCCCCCCCCCCCCCCCNC(=O)OCC(COP(=O)([O-])OCC[n+]1ccsc1)OC (stereo not drawn)
4%	COc1ccc(CN2CCC3(CC2)c2ccccc2[C@@H](NC(=O)c2ccco2)[C@@H]3OC)c(O)c1
-31%[inhibitor]	CCC1COCCS(=O)(=O)N1Cc1ccc(Cl)cc1 (stereo not drawn)
-19%	O=S(=O)(NCc1ccc(F)cc1)c1ccccc1Br

# The last two compounds of the part before lead into the next:
EPAC1 agonist	canonical_smiles
-31%[inhibitor]	CCC1COCCS(=O)(=O)N1Cc1ccc(Cl)cc1 (stereo not drawn)
-19%	O=S(=O)(NCc1ccc(F)cc1)c1ccccc1Br
1%	COc1ccc(S[C@@H](CCN2CC[C@H](NC(=O)OCc3ccccc3)CCC2=O)c2ccccc2)cc1
?	Cn1cccc1C(=O)N1CCC2(CC1)CN(C(c1ccccc1)c1ccccc1)C2
-11%	O=C(NCCc1cccnc1)c1cnn(-c2ncc3c(n2)-c2ccccc2CC3)c1C1CC1
27%	CN(C)c1ncc2nc(-c3cccs3)c(=O)n(CCc3ccccc3)c2n1
?	CCNc1ncc2nc(-c3ccc(F)cc3)c(=O)n(C)c2n1
9%	CC(C)(C)C1(O)CCN2CC3c4ccccc4CCc4cccc(c43)C2C1 (stereo not drawn)
-5%	N=c1ccn2c(n1)O[C@@H]1[C@H](O)[C@H](CO)O[C@@H]12
4%&-12%&-20%	O=C(N[C@H](CO)[C@H](O)c1ccc([N+](=O)[O-])cc1)C(Cl)Cl
-26%	COc1ccc(CNc2ccnc(-c3cccc(NS(C)(=O)=O)c3)n2)c(OC)c1
13%&-11%	C[n+]1ccccc1/C=N/O
2%	O=c1cc(O)cc(/C=C/c2ccc(O)c(O)c2)o1
14%	CCOC(=O)C1CCCN(C(=O)c2cnn(-c3nccc(-c4cc(C)sc4C)n3)c2C)C1 (stereo not drawn)
-17%&4%	CN(C)CCCc1cc(C(=O)Nc2ccc(-c3ccncc3)cc2)ccc1O
1%	COc1ccc(-c2nc3cc(C)ccc3cc2CN(C(=O)c2ccco2)C2CC2)cc1OC
21%	Cc1cc(=O)[nH]c2ccc([N+](=O)[O-])cc12
-64%[inhibitor]	CS(=O)(=O)N1CCC2(CC1)CN(C(=O)Nc1cccc(F)c1)C2
-28%	CCCCCCCCOc1ccc(C(=O)c2ccccc2)c(O)c1
-6%	C[N+]1(CC(=O)c2ccc(Br)cc2)CCOCC1
-35%[inhibitor]	COC(=O)CC1C2(C)CC34OC5(C)O[C@@]6(C7/C(=C(/O)C(C)C)C(=O)OC(c8ccoc8)[C@]7(C)C(OC(C)=O)C(OC(C)=O)[C@]6(O5)[C@@]13C)C(OC(C)=O)[C@]4(O)C2OC(=O)C(C)C (stereo partly drawn)
-2%	CO[C@@]1(NC(=O)C(C(=O)O)c2ccc(O)cc2)C(=O)N2C(C(=O)O)=C(CSc3nnnn3C)CO[C@@H]21 (stereo partly drawn)
-7%	COC(=O)c1sccc1S(=O)(=O)N1CCC(n2c(CC3CCCC3)nc3cccnc32)CC1
-78%[inhibitor]	CC(=O)N1CCC2(CC1)CCN(C(=O)Nc1cccc(F)c1)CC2
-7%	CC(C)c1c(C(=O)NCC(C)(C)N2CCOCC2)cnn1-c1nccc(-c2ccccc2F)n1
20%	COC(=O)[C@H](Cc1ccccc1)NS(=O)(=O)N[C@@H](Cc1ccccc1)C(=O)OC
26%	O=C1CS(=O)(=O)N(Cc2cccc(F)c2)c2ccc(Br)cc21
-183%[inhibitor]	CC(C)CCCC(C)C1CCC2C3=CC[C@@H]4CC(O)CC[C@@]4(C)C3CC[C@]21C (stereo partly drawn)
11%	O=C(O)c1cc2ccccc2[nH]1
?	c1ccc(C(NCc2cccnc2)(c2ccccc2)c2ccccc2)cc1
-24%	CN(CC1COCCO1)C(=O)c1cnn(-c2nccc(-c3ccccc3C(F)(F)F)n2)c1C1CC1 (stereo not drawn)
5%	C=C1CCC2C(C)(CO)C(O)CCC2(C)C1C/C=C1\C(=O)OCC1O (stereo not drawn)
?	N[C@H](C(=O)O)[C@@H](O)c1ccc(O)c(O)c1
-1%	COc1ccc(CNCC(O)COc2ccc3[nH]c(=O)ccc3c2)cc1OC (stereo not drawn)
?	Cc1c(Br)cnc2ccccc12
11%	CC1CN(Cc2cccn2-c2cccnc2)Cc2cc(Cl)ccc2O1 (stereo not drawn)
-14%	CN(N=O)C(=O)N[C@@H]1[C@@H](O)[C@H](O)[C@@H](CO)O[C@@H]1O
-10%	CO[C@H]1C[C@H](O[C@H]2[C@H](C)O[C@@H](O[C@@H]3/C(C)=C/C[C@@H]4C[C@@H](C[C@]5(C=C[C@H](C)[C@@H](C6CCCCC6)O5)O4)OC(=O)[C@@H]4C=C(C)[C@@H](O)[C@H]5OC/C(=C\C=C\[C@@H]3C)[C@]54O)C[C@@H]2OC)O[C@@H](C)[C@@H]1O
4%	C=C1C[C@@]23C[C@@]1(O)CC[C@@H]2[C@]12C=C[C@@H](O)[C@](C)(C(=O)O1)[C@@H]2[C@@H]3C(=O)O
-17%	CC(=O)NCCNc1cc(-c2ccccc2C(F)(F)F)ncn1
?	COc1cc2c(cc1OC)/C(=C/c1ccc(N(C)C)cc1)C=C2
-37%[inhibitor]	FC(F)(F)c1ccccc1-c1ccc2ncnc(NC3CC3)c2c1
?	O=C(C[n+]1ccc(/C=C/c2c[nH]c3ccccc23)c2ccccc21)c1ccccc1
?	COc1ccccc1-c1ccc2ncnc(N(C)Cc3ccco3)c2c1
-21%	COCCn1c(=O)c(CCc2ccccc2)nc2cnc(Nc3ccccc3)nc21
7%	COc1ccc2cc(CNCc3ccccc3C(F)(F)F)c(N3CCCC(CO)C3)nc2c1 (stereo not drawn)
-5%	CCC1(C2CCN(Cc3ccc(OC)cc3)CC2)NC(=O)N(CC2COc3ccccc3O2)C1=O (stereo not drawn)
-15%	CC(=O)OC1CCC2(C)C3=C(CCC2C1(C)C)[C@@]1(C)CCC(C(C)CCC=C(C)C)[C@@]1(C)CC3 (stereo partly drawn)
?	COCc1c(C(=O)N2CCC(c3ccccc3)CC2)cnn1-c1nccc(-c2cc(C)sc2C)n1
8%	CCN[C@H]1C[C@H](C)S(=O)(=O)c2sc(S(N)(=O)=O)cc21
-6%	Cc1ccc2nc(SCC(=O)NCC3Cc4cccc(-c5nc(C)cnc5C)c4O3)[nH]c2c1 (stereo not drawn)
11%	CC1(O)CC2C(CC1O)C2(C)C (stereo not drawn)
-16%	O=C(Nc1ccc(Cl)cc1Cl)[C@@H]1CC=C[C@@H]2CCN(C3CC3)C(=O)[C@@H]21
-6%	O=C(CCn1c(=O)[nH]c2ccccc21)NCC1Cc2cc(Cl)cc(-c3ccncc3)c2O1 (stereo not drawn)
-26%	COCc1c(C(=O)N2CCN(c3ccccc3O)CC2)cnn1-c1nccc(-c2cccs2)n1
-12%	CC(C)C(NS(C)(=O)=O)c1nnc2n1CCN(Cc1ccnc3ccccc13)CC2 (stereo not drawn)
13%	N#Cc1cccc(NC(=O)N2CC[C@@]3(CCCN(C(=O)c4csnn4)C3)C2)c1

# Compound activity deposited in PubChem by National Center for Advancing Translational Sciences (NCATS).
